Compound activity: PubChem BioAssay, ICCB-Longwood Screening Facility, Harvard Medical School
Mtb MbtI inh: blocks the Mycobacterium tuberculosis siderophore enzyme MbtI; P9WFX0; purified MbtI enzyme, fluorescence intensity read-out; inhibition, %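 (about 17 µg/mL by stock and volumes)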; 100,000 tested, 0.89% active;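 active = above 50% in both replicates, above 80% if mildly self-fluorescent; inactive = the rest, strongly fluorescent compounds included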;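 note: 0% = mean of negative and 100% = mean of positive controls; one replicate is shown; some compounds called inactive have numbers as strong as hits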
Target sequence (P9WFX0 whole entry, looked up): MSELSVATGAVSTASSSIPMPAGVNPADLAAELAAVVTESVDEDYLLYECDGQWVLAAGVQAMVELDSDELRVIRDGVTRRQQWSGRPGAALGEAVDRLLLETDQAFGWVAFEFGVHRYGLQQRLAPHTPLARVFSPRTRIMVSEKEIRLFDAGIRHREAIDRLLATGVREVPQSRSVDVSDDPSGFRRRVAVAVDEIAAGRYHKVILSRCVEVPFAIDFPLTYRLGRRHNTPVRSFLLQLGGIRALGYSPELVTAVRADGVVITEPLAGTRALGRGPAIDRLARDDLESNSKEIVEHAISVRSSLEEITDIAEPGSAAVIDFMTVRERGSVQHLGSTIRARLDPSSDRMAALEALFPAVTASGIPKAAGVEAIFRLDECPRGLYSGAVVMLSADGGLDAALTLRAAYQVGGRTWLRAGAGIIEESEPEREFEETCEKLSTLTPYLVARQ
MenB inh: blocks the Mycobacterium tuberculosis MenB enzyme | AID 540299 | 100,000 tested, 0.43% active | P9WNP5 | MenB enzyme assay, absorbance read-out; some hits fall short of the stated cut | inhibition, %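 (about 12 µg/mL by stock and volumes)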;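 active = mean of two replicates above 30%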;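 note: 0% = no compound and 100% = wells with inactive enzyme; the first replicate is given; strong numbers were not always called active; inactives centre near -10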
Target sequence (P9WNP5 whole entry, looked up): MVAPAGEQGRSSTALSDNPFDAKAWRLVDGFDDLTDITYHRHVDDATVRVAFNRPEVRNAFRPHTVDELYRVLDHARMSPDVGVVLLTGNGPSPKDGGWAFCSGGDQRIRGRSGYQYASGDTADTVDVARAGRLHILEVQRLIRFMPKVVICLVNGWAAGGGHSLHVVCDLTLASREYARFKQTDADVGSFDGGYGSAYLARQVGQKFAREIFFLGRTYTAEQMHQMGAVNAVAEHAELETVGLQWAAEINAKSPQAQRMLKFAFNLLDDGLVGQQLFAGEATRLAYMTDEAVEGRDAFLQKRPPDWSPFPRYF
PV pol inh: inhibitors of poliovirus RNA polymerase binding and polymerization; poliovirus polymerase elongation, fluorescence polarization; active compounds read low; % elongation, % (compound at 16.7 µg/mL); 150,000 tested, 0.66% active; in the data active = % elongation below about 90%; note: some results filed as inactive read as strong as hits
PV pol inh intensity: second read-out of PV pol inh, no call of its own (marks repeat the call); % elongation; measured here: total intensity read-out; formula for this scale not given here;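 total fluorescence in place of polarization; lower means less elongation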
* = called active by the depositor; i = inactive; nt = no result given; & = joins results of further samples.

item	molecule	Mtb MbtI inh	MenB inh
1	O=C(c1ccc(-c2ccccc2)s1)N1CCOCC1	3.5	7.5
2	O=C1CN(C(=O)Cc2c(Cl)cccc2Cl)CCN1	6.6	1.1
3	Cc1ccc(C)c(NC(=O)C2CCCN(c3cnccn3)C2)c1 (configuration not stated)	88.5	12.6
4	COC(=O)c1cccc(-c2ccc(/C=C(/C#N)c3ccc(Cl)cc3)o2)c1	32.4	-27.5
5	O=c1ccc2ccc(Oc3ncccn3)cc2o1	-3.6	6.4
6	CC1(NC(N)=O)CCS(=O)(=O)C1 (configuration not stated)	17.6	3.8
7	COc1cc2c(cc1OC)C(C(=O)O)CC(=O)N2 (configuration not stated)	-13.2	-12.2
8	CCn1c(C)nc2cc(-c3nnc4n3-c3ccccc3SC4)ccc21	-7.1	-5.2

item	PV pol inh	PV pol inh intensity
1	100.0	104.0
2	102.0	105.0
3	102.0	101.0
4	110.0	127.0
5	102.0	110.0
6	101.0	100.0
7	103.0	105.0
8	110.0	106.0

Remaining list, next part:
item	molecule	Mtb MbtI inh	MenB inh
9	O=C1c2ccccc2-c2onc3c(N4CCCCC4)cc(N4CCCCC4)c1c23	-7.7	-25.9
10	CC1CCCCN1C(=O)c1cccc2c1SCCC2=O (configuration not stated)	-6.9	-21.5
11	Cc1nc2ccn(Cc3ccccc3)c(=O)c2cc1C(=O)N1CCCC1	126.6	-13.3
12	Cc1cc(N2CCCC(O)C2)n2nc(C)c(-c3ccc(F)cc3)c2n1 (configuration not stated)	0.9	23.1
13	CC1Cc2ccccc2N1C(=O)CSc1nnnn1C(C)C (configuration not stated)	0.1	-79.7
14	CCCC(CCC)C(=O)Nc1cc(C(=O)O)cc(C(=O)O)c1	-6.5	-21.5
15	O=C(NC1CCCC1)C1CCCN(C(=O)Nc2ccccc2)C1 (configuration not stated)	-10.2	-43.9
16	c1ccc(-c2noc(-c3ccc4c(c3)OCO4)n2)cc1	-5.6	-32.3

item	PV pol inh	PV pol inh intensity
9	99.0	111.0
10	106.0	105.0
11	103.0	102.0
12	100.0	99.0
13	102.0	103.0
14	101.0	104.0
15	105.0	101.0
16	105.0	100.0

Next section.
item	molecule	Mtb MbtI inh	MenB inh
17	CCOc1ccc(NC(=O)c2cc(OC)nc3ccccc23)cc1	-0.4	31.1
18	Oc1c(C(c2cccnc2)N2CCOCC2)ccc2cccnc12 (configuration not stated)	91.7*	-46.7
19	CSC(=NC(=O)c1c(Cl)cccc1Cl)N1CCOCC1	7.6	-15.4
20	CC(C)CC(N)C(=O)N1CCOCCOCCOCC1 (configuration not stated)	-1.9	-25.9
21	Cc1oc2c(c1C(=O)O)C(=O)c1ccccc1C2=O	-2.9	-12.6
22	CCO/C=C1\C(=O)N(Cc2ccccc2)C(=O)c2ccccc21	-5.3	nt
23	COc1ccc(CCC(=O)c2c(O)cc(O[C@@H]3O[C@H](CO)C(O)[C@H](O)C3O[C@@H]3O[C@@H](C)[C@H](O)[C@@H](O)[C@H]3O)cc2O)cc1O (some centres not stated)	-5.1	8.0
24	O=C(CCC1CCCCC1)Nc1c[nH]c(=O)[nH]c1=O	-5.0	0.0

item	PV pol inh	PV pol inh intensity
17	101.0	102.0
18	nt	nt
19	103.0	105.0
20	101.0	100.0
21	66.0*	59.0*
22	62.0*	60.0*
23	100.0	102.0
24	102.0	104.0

Following part.
item	molecule	Mtb MbtI inh	MenB inh
25	CC(Sc1nnc2c(n1)[nH]c1ccccc12)C(=O)NC(C)(C)C (configuration not stated)	27.4	11.4
26	O=C(O)CCCC(=O)N1CCN(Cc2ccc3c(c2)OCO3)CC1	8.6	5.9
27	O=C(/C=C/c1ccccc1)OCc1ncc(-c2ccccc2)o1	9.3	-10.1
28	CCNC(=S)Nc1cc(OCC)c(N2CCOCC2)cc1OCC	10.5	3.1
29	CCOc1ccc2nc(NC(=O)C3=NNC(=O)CC3)sc2c1	-16.1	6.2
30	CCOc1ccc(OCC)c(S(=O)(=O)N2CCN(C34CC5CC(CC(C5)C3)C4)CC2)c1	3.0	-0.7
31	Cn1c(CC(=O)O)c(S(C)(=O)=O)c2ccccc21	nt	-12.6
32	CCCN1CC=C2C(C1)C(c1ccc(C(=O)OC)cc1)C(C#N)=C(N)C2(C#N)C#N (configuration not stated)	57.8	-31.2

item	PV pol inh	PV pol inh intensity
25	101.0	102.0
26	103.0	102.0
27	104.0	101.0
28	100.0	105.0
29	103.0	108.0
30	104.0	110.0
31	101.0	106.0
32	91.0	133.0

More records
item	molecule	Mtb MbtI inh	MenB inh
33	Cc1ccc2c(=O)[nH]c(Cc3ccccc3C(=O)O)nc2c1	-3.0	nt
34	N#C/C(=C\Nc1cccc(Cl)c1)S(=O)(=O)c1ccc(Cl)cc1	2.2	-17.0
35	O=C(O)C1CCC(CNc2cc(=O)oc3ccccc23)CC1 (configuration not stated)	7.6	-2.8
36	CCCCOc1ccccc1/C=N/N=C(N)N	1.6	-31.6
37	O=C(COC(=O)/C=C/c1ccc(Br)o1)NC1CCCCCC1	10.8	5.0
38	CCOC(=O)C1CCCN(C(=O)CCNC(=O)Cn2ccc3ccccc3c2=O)C1 (configuration not stated)	15.0	-14.9
39	Cc1cc(NC(=O)Nc2ccccc2)c(C(F)(F)F)o1	-4.4	-10.2
40	Cc1ccccc1CS(=O)(=O)Cc1ccc(C(=O)Nc2noc3ccccc23)o1	14.6	-0.9

item	PV pol inh	PV pol inh intensity
33	102.0	104.0
34	106.0	105.0
35	102.0	101.0
36	102.0	98.0
37	102.0	102.0
38	100.0	102.0
39	105.0	99.0
40	98.0	103.0

Next section:
item	molecule	Mtb MbtI inh	MenB inh
41	CCCCNc1cc(C(=O)O)cc(S(N)(=O)=O)c1Oc1ccccc1	-165.2&-152.8&-66.8	-11.2&-3.9&-0.3
42	O=c1c(Cc2ccccc2)c(O)c2ccccc2n1-c1ccccc1	-44.2	-9.0
43	COc1ccc(C2NC(c3ccc(OC)cc3)C(C)C(O)(Cc3ccccc3)C2C)cc1 (configuration not stated)	16.2	3.7
44	Cc1[nH]c(-c2ccc(F)cc2)cc1C(=O)NCCc1ccc(S(N)(=O)=O)cc1	-59.6	-25.5
45	Cc1csc2c(NCCCN3CCOCC3)ncnc12	-7.4	-5.6
46	COc1cc(/C=C/C(=O)O)cc(Br)c1O	5.7	nt
47	N#CC1(NC(=O)COC(=O)C2CC3CCCC(C2)C3=O)CCCC1 (configuration not stated)	-6.5	-17.2
48	O=C(c1ccc2c(c1)N(Cc1cccc(F)c1)C(=O)c1ccccc1S2)N1CCCCC1	1.8	-2.2

item	PV pol inh	PV pol inh intensity
41	102.0&100.0&101.0&99.0	102.0&101.0&102.0&99.0
42	105.0	99.0
43	104.0	99.0
44	102.0	104.0
45	104.0	107.0
46	103.0	98.0
47	100.0	107.0
48	100.0	100.0

(listing goes on)
item	molecule	Mtb MbtI inh	MenB inh
49	Cc1ccc(NC(=O)N(CCc2ccncc2)C(C)C)cc1C	6.5	9.7
50	Clc1nc(-c2cccs2)nc2ccccc12	i	-3.2
51	CCOc1ccc(NC(=O)CNc2ccc(S(=O)(=O)N(C)C)cc2)cc1OCC	1.8	-10.5
52	CCOC(=O)N1CCN(C(=O)CNC2CCCC(C)C2C)CC1 (configuration not stated)	-13.8	4.2
53	Cc1ccc2nc(N3CCOCC3)c(/C=C3\SC(=S)NC3=O)c(=O)n2c1	6.8	-27.4
54	O=C(O)CCN1c2cccc3cccc(c23)S1(=O)=O	27.9	-5.5
55	CNC(=O)Nc1ccccc1NC(=O)NC	-4.1	-13.0
56	CCCCNC(=O)/C=C1\Sc2ccccc2NC1=O	8.6	1.0

item	PV pol inh	PV pol inh intensity
49	102.0	95.0
50	99.0	104.0
51	103.0	97.0
52	110.0	119.0
53	73.0	196.0
54	104.0	98.0
55	96.0	101.0
56	102.0	101.0

Further entries.
item	molecule	Mtb MbtI inh	MenB inh
57	CCN1CCN(c2cc(C)c3cc(NC(=O)CCC(=O)Nc4ccc5c(c4)OCCO5)ccc3n2)CC1	116.4	1.1
58	Clc1ccc2oc(-c3ccccc3)cc(=NCc3cccnc3)c2c1	7.1	-18.8
59	O=C(Nc1cccc(Cl)c1)Nc1ccc(CSc2ccc(Cl)cc2)o1	30.1	-22.7
60	CC(C)(C)C(=O)Nc1ccc(C(C)(C)C)cc1	-14.9	-1.0
61	CN(C1CCCCC1)S(=O)(=O)c1ccc2ccccc2c1	-3.1	3.7
62	COC(=O)c1sc(C(F)(F)F)c(-c2ccccc2)c1S(=O)(=O)NC(C)(C)C	-0.3	-30.2
63	CC1C/C(=N/N=C2/NC(=O)CS2)CC(C)(C)C1 (configuration not stated)	-11.3	-24.9
64	CC1CCc2c(sc(NC(=O)c3ccc(Cl)s3)c2C#N)C1 (configuration not stated)	-9.9	-6.5

item	PV pol inh	PV pol inh intensity
57	101.0	100.0
58	96.0	89.0
59	103.0	112.0
60	109.0	103.0
61	97.0	105.0
62	100.0	100.0
63	101.0	102.0
64	104.0	108.0

Going on with the list:
item	molecule	Mtb MbtI inh	MenB inh
65	Cc1ccc(Cn2nnnc2CN2CCC(NC(=O)C(C)(C)C)CC2)cc1	-5.3	-6.3
66	COc1ccccc1C(CC(=O)N1CCCC1)c1ccc2c(c1)OCO2 (configuration not stated)	nt	-11.4
67	O=C(Cn1cnc2c(cnn2-c2ccccc2)c1=O)NCc1ccco1	5.8	-1.2
68	O=C1OCC2=C1C(c1ccc3c(c1)OCO3)c1c(ccc3ccccc13)N2 (configuration not stated)	89.0	-52.3
69	C=C[C@H]1CN2CC[C@H]1C[C@H]2[C@H](O)c1ccnc2ccccc12	-15.1	-5.1
70	Clc1cccc(Nc2nnc(Cc3cccnc3)c3ccccc23)c1	-5.4	-10.8
71	CCc1nc2ccccc2n1C(=O)c1cc2c(C)nn(-c3ccc(Cl)cc3)c2s1	9.6	-20.9
72	O=C(O)Cn1nc(-c2ccccc2)oc1=O	4.4	-1.3

item	PV pol inh	PV pol inh intensity
65	103.0	103.0
66	108.0	111.0
67	101.0	102.0
68	102.0	103.0
69	101.0	102.0
70	103.0	103.0
71	107.0	110.0
72	102.0	106.0

(more compounds)
item	molecule	Mtb MbtI inh	MenB inh
73	O=C(/C=C/c1ccccc1)OC1CCOC1=O (configuration not stated)	2.6	nt
74	C/C=C(/C)C(=O)O[C@H]1C(C)=C2[C@H]([C@@H]1OC(=O)CCCCCCC)[C@@](C)(OC(C)=O)C[C@H](OC(=O)CCC)[C@@]1(O)[C@H]2OC(=O)[C@@]1(C)O	-4.5	-19.4
75	CNC(=O)c1cc(-c2ccccc2)c(N2CCOCC2)s1	-2.4	-1.5
76	O=C(CNc1ccccc1N1CCCCC1)Nc1ccc(S(=O)(=O)N2CCCCC2)cc1	-4.8	-25.7
77	CC(=O)Nc1ccc(S(=O)(=O)N2CCN(CCC#N)CC2)cc1	-0.6	-5.0
78	CC(=O)Oc1ccc2c(=O)c(-c3cc4ccccc4o3)coc2c1	-11.9	-7.5
79	CC1SCCN1S(=O)(=O)c1ccc2ccccc2c1 (configuration not stated)	10.1	-8.4
80	NNC(=O)Nc1ccc(C(F)(F)F)cc1Cl	-2.5	-15.2

item	PV pol inh	PV pol inh intensity
73	100.0	106.0
74	101.0&100.0	100.0&100.0
75	101.0	100.0
76	105.0	95.0
77	101.0	102.0
78	101.0	104.0
79	99.0	97.0
80	102.0	99.0

Entries of single compounds as entered above. Screens in order: Mtb MbtI inh	MenB inh	PV pol inh	PV pol inh intensity
CC(=O)Oc1ccc2c(=O)c(-c3cc4ccccc4o3)coc2c1 is listed as -11.9	-7.5	101.0	104.0
CC1SCCN1S(=O)(=O)c1ccc2ccccc2c1 (configuration not stated) is listed as 10.1	-8.4	99.0	97.0
O=C(CNc1ccccc1N1CCCCC1)Nc1ccc(S(=O)(=O)N2CCCCC2)cc1 is listed as -4.8	-25.7	105.0	95.0

3 compounds already listed, ordered by length of the SMILES, falling.
item	molecule	Mtb MbtI inh	MenB inh
74	C/C=C(/C)C(=O)O[C@H]1C(C)=C2[C@H]([C@@H]1OC(=O)CCCCCCC)[C@@](C)(OC(C)=O)C[C@H](OC(=O)CCC)[C@@]1(O)[C@H]2OC(=O)[C@@]1(C)O	-4.5	-19.4
79	CC1SCCN1S(=O)(=O)c1ccc2ccccc2c1 (configuration not stated)	10.1	-8.4
73	O=C(/C=C/c1ccccc1)OC1CCOC1=O (configuration not stated)	2.6	nt

item	PV pol inh	PV pol inh intensity
74	101.0&100.0	100.0&100.0
79	99.0	97.0
73	100.0	106.0

(further entries)
item	molecule	Mtb MbtI inh	MenB inh
81	Cc1ccc2nc(Cl)c(CO)cc2c1	7.0	-18.3
82	COCCn1c(C)cc(/C=C(\C#N)C(=O)OCc2cc(=O)n3c(n2)sc2ccccc23)c1C	2.2	-19.5
83	CCC(C)c1ccc(S(=O)(=O)N2CCN(C(C)C(=O)NC3CC3)CC2)cc1 (configuration not stated)	17.7	-3.9
84	Cc1cc(NC(=O)Cc2ccccc2)ccc1-c1cc2ccccc2oc1=O	nt	-25.6
85	Cc1ccc(-c2nc(CSCC(=O)N3CCC(C(N)=O)CC3)c(C)o2)cc1	56.9	5.8
86	N#Cc1ccc(CSc2ncnc3ccccc23)cc1	-7.0	nt
87	COc1ccc(CNC(=O)C2CCN(c3nc4cccnc4s3)CC2)c(OC)c1	16.1	-11.5
88	O=C(NCC1CCN(S(=O)(=O)c2ccc(Cl)cc2)CC1)C1CCCO1 (configuration not stated)	-4.2	-13.4

item	PV pol inh	PV pol inh intensity
81	101.0	102.0
82	103.0	106.0
83	101.0	103.0
84	104.0	107.0
85	98.0	101.0
86	102.0	104.0
87	100.0	101.0
88	104.0	103.0
